A1 apoptosis 2: compounds inhibiting A1, read as caspase activation; MEF A1-2A-BIM cells, caspase-Glo luminescence, 3 h; percent of clofoctol response, DMSO zero; caspase activation, % (test concentration not listed); 24,000 tested, under 10 active; AID 2465; in the data active = caspase activation above about 5.9%;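 note: wells of about 30 µL received 50 nL stock; the first replicate is given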
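Material: A1-2A-BIM-expressing MEF cells. Buffer or medium: RPMI-1640 plus 10% FBS. Incubation: cells settled overnight, compound exposure 3 h at 37 °C, 5% CO2. Signal: Caspase-Glo 3/7 luminescence, 1 h at room temperature.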
An asterisk follows results filed as active. An excerpt; count on the stated rates, not on these rows.

compound	A1 apoptosis 2
C[C@@H]1CN([C@H](C)CO)C(=O)c2cc(NS(C)(=O)=O)ccc2O[C@@H](C)CCCCO[C@H]1CN(C)Cc1ccc2c(c1)OCO2	0.9
CC(C)NC(=O)Nc1cccc2c1O[C@@H](CN(C)Cc1ccc3c(c1)OCO3)[C@H](C)CN([C@@H](C)CO)C2=O	0.1
Cc1noc(C)c1S(=O)(=O)N(C)C[C@H]1Oc2ccc(NS(C)(=O)=O)cc2CC(=O)N([C@H](C)CO)C[C@@H]1C	-1.0
Cc1noc(C)c1S(=O)(=O)N(C)C[C@H]1Oc2ccc(N(C)C)cc2CC(=O)N([C@@H](C)CO)C[C@H]1C	0.3
C[C@H](CO)N1C[C@H](C)[C@@H](CN(C)Cc2ccc(-c3ccccc3)cc2)Oc2ccc(NS(=O)(=O)c3cccs3)cc2CC1=O	0.1
Cc1noc(C)c1NC(=O)Nc1ccc2c(c1)CC(=O)N([C@H](C)CO)C[C@@H](C)[C@H](CN(C)Cc1ccc(C(F)(F)F)cc1)O2	-0.6
COc1ccc(S(=O)(=O)N(C)C[C@H]2Oc3ccc(NC(=O)c4ccncc4)cc3C(=O)N([C@H](C)CO)C[C@@H]2C)cc1	0.2
CC(C)NC(=O)N(C)C[C@H]1Oc2ccc(NC(=O)NC3CCCCC3)cc2C(=O)N([C@@H](C)CO)C[C@@H]1C	0.8
C[C@@H]1CN([C@H](C)CO)C(=O)c2cc(NC(=O)Nc3cccc4ccccc34)ccc2O[C@H]1CN(C)S(C)(=O)=O	0.4
Cc1noc(C)c1NC(=O)N(C)C[C@@H]1OCCCC[C@@H](C)Oc2ccc(NS(=O)(=O)c3ccc(F)cc3)cc2C(=O)N([C@H](C)CO)C[C@@H]1C	0.6
CC(C)NC(=O)N(C)C[C@H]1Oc2ccc(NS(=O)(=O)c3cn(C)cn3)cc2CC(=O)N([C@@H](C)CO)C[C@H]1C	-0.2
C[C@@H]1CN([C@H](C)CO)C(=O)c2cc(NC(=O)CCC(F)(F)F)ccc2O[C@@H](C)CCCCO[C@H]1CN(C)C(=O)Nc1ccccc1	0.6
C[C@@H]1CN([C@H](C)CO)C(=O)c2cc(NC(=O)C3CCCCC3)ccc2O[C@@H]1CN(C)S(=O)(=O)c1cn(C)cn1	-0.6
COc1ccc(NC(=O)N(C)C[C@H]2Oc3c(NC(=O)C4CCOCC4)cccc3C(=O)N([C@H](C)CO)C[C@H]2C)cc1	0.8
Cc1ccc(S(=O)(=O)Nc2ccc3c(c2)CC(=O)N([C@@H](C)CO)C[C@H](C)[C@H](CN(C)C(=O)NC(C)C)O3)cc1	0.7
C[C@@H]1CN([C@H](C)CO)C(=O)Cc2cc(NC(=O)c3ccncc3)ccc2O[C@@H]1CN(C)CC1CC1	-0.7
C[C@H](CO)N1C[C@H](C)[C@H](CN(C)Cc2cccc(C(F)(F)F)c2)Oc2ncc(-c3cccc(F)c3)cc2C1=O	0.4
Cc1ccc(S(=O)(=O)N(C)C[C@H]2Oc3ccc(NS(=O)(=O)c4ccc(F)cc4)cc3C(=O)N([C@@H](C)CO)C[C@H]2C)cc1	-1.0
Cc1noc(C)c1S(=O)(=O)N(C)C[C@H]1Oc2ccc(NS(=O)(=O)c3ccc(F)cc3)cc2CC(=O)N([C@@H](C)CO)C[C@H]1C	-0.8
Cc1noc(C)c1S(=O)(=O)N(C)C[C@H]1Oc2c(NC(=O)c3nc4ccccc4s3)cccc2C(=O)N([C@H](C)CO)C[C@H]1C	-1.5
C[C@H]1CN([C@@H](C)CO)C(=O)c2cccc(NS(=O)(=O)c3ccc(F)cc3)c2O[C@H]1CN(C)S(C)(=O)=O	1.8
CNC[C@@H]1Oc2ccc(NC(=O)Nc3ccc(F)cc3)cc2C(=O)N([C@H](C)CO)C[C@H]1C	-1.0
C[C@H]1CN([C@@H](C)CO)C(=O)c2cc(N(C)C)ccc2O[C@@H]1CN(C)C(=O)Nc1ccc(C(F)(F)F)cc1	-0.9
COc1ccc(S(=O)(=O)Nc2ccc3c(c2)C(=O)N([C@H](C)CO)C[C@@H](C)[C@@H](CN(C)S(=O)(=O)c2ccc(F)cc2)O3)cc1	0.2

(further entries)
Molecule | A1 apoptosis 2
C[C@H]1CN([C@@H](C)CO)C(=O)Cc2cc(NC(=O)Nc3ccc(F)cc3)ccc2O[C@H]1CN(C)C(=O)Nc1ccc(F)cc1 | -0.4
Cc1noc(C)c1NC(=O)Nc1ccc2c(c1)C(=O)N([C@H](C)CO)C[C@H](C)[C@@H](CN(C)S(=O)(=O)c1cccs1)O2 | -0.6
CC(C)NC(=O)N(C)C[C@@H]1Oc2ccc(NC(=O)Cc3ccccc3)cc2C(=O)N([C@H](C)CO)C[C@H]1C | -1.1
Cc1noc(C)c1NC(=O)N(C)C[C@@H]1Oc2ccc(NC(=O)NC3CCCCC3)cc2CC(=O)N([C@@H](C)CO)C[C@@H]1C | 0.6
C[C@@H]1CN([C@H](C)CO)C(=O)Cc2cc(NC(=O)CCCCCC(=O)Nc3ccccc3N)ccc2O[C@@H]1CN(C)S(=O)(=O)c1ccc(F)cc1 | 0.8
C[C@H]1CN([C@@H](C)CO)C(=O)c2cccc(NC(=O)NC3CCCCC3)c2O[C@H]1CN(C)C(=O)NC1CCCCC1 | 1.7
Cc1ccc(S(=O)(=O)Nc2ccc3c(c2)C(=O)N([C@@H](C)CO)C[C@@H](C)[C@H](CN(C)Cc2ccc(C(=O)O)cc2)OCCCC[C@@H](C)O3)cc1 | 0.8
C[C@@H]1CN([C@@H](C)CO)C(=O)Cc2cc(NC(=O)Cn3cnnn3)ccc2O[C@@H]1CN(C)S(=O)(=O)c1ccc(Cl)cc1 | 1.2
C[C@@H]1CCCCO[C@@H](CN(C)C(=O)Nc2cccc3ccccc23)[C@@H](C)CN([C@H](C)CO)C(=O)c2cc(NC(=O)CCCCCC(=O)Nc3ccccc3N)ccc2O1 | 2.5
Cc1ccc(S(=O)(=O)Nc2ccc3c(c2)C(=O)N([C@@H](C)CO)C[C@@H](C)[C@@H](CN(C)Cc2ccc4c(c2)OCO4)O3)cc1 | -1.1
COCCOC(=O)N1C(=O)[C@@]2(c3cc(C#CCC(C(=O)OC)C(=O)OC)ccc31)[C@H](c1ccccc1OCCO)N1[C@H](c3ccccc3)[C@H](c3ccccc3)OC(=O)[C@H]1[C@@H]2C(=O)NC[C@H](O)c1ccccc1 | 0.8
C[C@@H]1CN([C@H](C)CO)C(=O)CCCn2cc(nn2)CO[C@@H]1CN(C)Cc1ccccc1C(F)(F)F | 0.0
C[C@@H]1CCCCO[C@H](CN(C)Cc2ccc(C(=O)O)cc2)[C@H](C)CN([C@H](C)CO)C(=O)c2cc(NC(=O)Cc3ccccc3)ccc2O1 | 0.0
COc1ccc(CN(C)C[C@@H]2Oc3c(NC(=O)C4CC4)cccc3C(=O)N([C@@H](C)CO)C[C@H]2C)cc1 | -0.3
C[C@@H]1CN([C@@H](C)CO)C(=O)c2cc(NC(=O)Nc3ccc(F)cc3)ccc2O[C@@H](C)CCCCO[C@H]1CN(C)CC1CC1 | 0.9
C[C@H](CO)N1C[C@H](C)[C@H](CN(C)Cc2ccc(Cl)c(Cl)c2)Oc2ccc(NC(=O)CCN3CCOCC3)cc2CC1=O | 0.0
C[C@H](CO)N1C[C@H](C)[C@@H](CN(C)S(=O)(=O)c2cn(C)cn2)Oc2ccc(NS(C)(=O)=O)cc2CC1=O | 0.4
Cc1noc(C)c1NC(=O)Nc1ccc2c(c1)CC(=O)N([C@H](C)CO)C[C@H](C)[C@H](CN(C)Cc1ccccc1)O2 | 0.0
C[C@H]1CN([C@@H](C)CO)C(=O)Cc2cc(NC(=O)Cc3ccccc3)ccc2O[C@H]1CN(C)S(=O)(=O)c1cn(C)cn1 | -0.7
COc1ccc(S(=O)(=O)Nc2ccc3c(c2)C(=O)N([C@H](C)CO)C[C@H](C)[C@@H](CN(C)C(=O)c2ccncc2)OCCCC[C@@H](C)O3)cc1 | 0.0
C[C@H]1CCCCO[C@H](CN(C)C(=O)C2CCCCC2)[C@@H](C)CN([C@@H](C)CO)C(=O)c2cc(NC(=O)Nc3ccccc3)ccc2O1 | -1.9
C[C@H](CO)N1C[C@H](C)[C@@H](CN(C)Cc2ccc(C(=O)O)cc2)Oc2c(NC(=O)NC3CCCCC3)cccc2C1=O | -0.4
CC(C)NC(=O)Nc1ccc2c(c1)C(=O)N([C@H](C)CO)C[C@H](C)[C@@H](CN(C)C(=O)CCCN(C)C)OCCCC[C@H](C)O2 | -0.1
C[C@@H]1CN([C@H](C)CO)C(=O)c2cc(NC(=O)CCC(F)(F)F)ccc2O[C@@H](C)CCCCO[C@@H]1CN(C)CC1CCCCC1 | -0.7
C[C@@H]1CN([C@H](C)CO)C(=O)Cc2cc(NS(C)(=O)=O)ccc2O[C@@H]1CN(C)C(=O)Nc1ccccc1 | -1.5
COc1ccc(NC(=O)Nc2cccc3c2O[C@H](CN(C)CC2CCCCC2)[C@H](C)CN([C@H](C)CO)C3=O)cc1 | 0.1
CNC[C@H]1Oc2c(NC(=O)c3nc4ccccc4s3)cccc2C(=O)N([C@@H](C)CO)C[C@H]1C | -0.3
C=CCN1C(=O)[C@]2(O[C@H](CCn3cc([C@H](O)c4ccccc4)nn3)[C@@H]([Si](C)(C)c3ccc(OC)cc3)[C@@H]2C)c2cc(N3CCC3=O)ccc21 | -0.2
C[C@H](CO)N1C[C@H](C)[C@H](CN(C)C)Oc2ccc(NC(=O)C3CC3)cc2CC1=O | 0.3
O=C(O)c1cccc(/C=N/NC(=O)c2ccccn2)c1 | -6.6
C[C@@H]1CN([C@H](C)CO)C(=O)c2cc(NC(=O)c3ccncc3)ccc2O[C@@H]1CN(C)Cc1ccc(Oc2ccccc2)cc1 | -0.7
C[C@H](CO)N1C[C@H](C)[C@H](CN(C)Cc2ccc3c(c2)OCO3)Oc2ncc(-c3ccc(F)cc3)cc2C1=O | 0.3
C[C@@H]1CCCCO[C@H](CN(C)C(=O)CCC(F)(F)F)[C@@H](C)CN([C@H](C)CO)C(=O)c2cc(NS(=O)(=O)c3ccccc3)ccc2O1 | -0.3
Cc1noc(C)c1NC(=O)N(C)C[C@H]1OCCCC[C@H](C)Oc2ccc(NC(=O)Cc3ccccc3)cc2C(=O)N([C@H](C)CO)C[C@@H]1C | 0.0
Cc1noc(C)c1S(=O)(=O)N(C)C[C@H]1Oc2c(NC(=O)c3cnccn3)cccc2C(=O)N([C@@H](C)CO)C[C@H]1C | -0.2
C=CCNC(=O)[C@H]1[C@@H]2C(=O)O[C@@H](c3ccccc3)[C@@H](c3ccccc3)N2[C@@H](c2ccccc2OCCO)[C@]12C(=O)N(C(=O)OCCOC)c1ccc(C#CCC(C(=O)OC)C(=O)OC)cc12 | 0.5
C[C@H](CO)N1C[C@H](C)[C@H](CN(C)S(=O)(=O)c2ccc(F)cc2)Oc2ncc(-c3cccc(C(F)(F)F)c3)cc2C1=O | -0.8
C[C@@H]1CCCCO[C@H](CN(C)C(=O)C2CCCCC2)[C@@H](C)CN([C@@H](C)CO)C(=O)c2cc(NS(=O)(=O)c3ccccc3)ccc2O1 | -1.6
COc1ccc(S(=O)(=O)Nc2ccc3c(c2)CC(=O)N([C@H](C)CO)C[C@@H](C)[C@H](CN(C)CC2CC2)O3)cc1 | -0.8
C[C@@H]1CN([C@@H](C)CO)C(=O)c2cc(NC(=O)Cc3ccccc3)ccc2O[C@H]1CN(C)Cc1ccc(C(F)(F)F)cc1 | 0.0

9 entries out of the list, arranged by number of heavy atoms, high to low.
Molecule | A1 apoptosis 2
C[C@@H]1CCCCO[C@@H](CN(C)C(=O)Nc2cccc3ccccc23)[C@@H](C)CN([C@H](C)CO)C(=O)c2cc(NC(=O)CCCCCC(=O)Nc3ccccc3N)ccc2O1 | 2.5
Cc1noc(C)c1NC(=O)N(C)C[C@@H]1OCCCC[C@@H](C)Oc2ccc(NS(=O)(=O)c3ccc(F)cc3)cc2C(=O)N([C@H](C)CO)C[C@@H]1C | 0.6
C[C@@H]1CN([C@H](C)CO)C(=O)c2cc(NC(=O)CCC(F)(F)F)ccc2O[C@@H](C)CCCCO[C@H]1CN(C)C(=O)Nc1ccccc1 | 0.6
C[C@@H]1CN([C@H](C)CO)C(=O)c2cc(NC(=O)c3ccncc3)ccc2O[C@@H]1CN(C)Cc1ccc(Oc2ccccc2)cc1 | -0.7
Cc1noc(C)c1S(=O)(=O)N(C)C[C@H]1Oc2c(NC(=O)c3nc4ccccc4s3)cccc2C(=O)N([C@H](C)CO)C[C@H]1C | -1.5
C[C@H](CO)N1C[C@H](C)[C@H](CN(C)S(=O)(=O)c2ccc(F)cc2)Oc2ncc(-c3cccc(C(F)(F)F)c3)cc2C1=O | -0.8
C[C@H](CO)N1C[C@H](C)[C@H](CN(C)Cc2cccc(C(F)(F)F)c2)Oc2ncc(-c3cccc(F)c3)cc2C1=O | 0.4
C[C@H]1CN([C@@H](C)CO)C(=O)c2cc(N(C)C)ccc2O[C@@H]1CN(C)C(=O)Nc1ccc(C(F)(F)F)cc1 | -0.9
O=C(O)c1cccc(/C=N/NC(=O)c2ccccn2)c1 | -6.6

(continued)
Molecule | A1 apoptosis 2
COc1ccc(S(=O)(=O)Nc2ccc3c(c2)C(=O)N([C@@H](C)CO)C[C@H](C)[C@@H](CN(C)S(=O)(=O)c2cn(C)cn2)OCCCC[C@H](C)O3)cc1 | -1.1
C[C@@H]1CCCCO[C@H](CN(C)C(=O)Nc2ccc(F)cc2)[C@@H](C)CN([C@H](C)CO)C(=O)c2cc(NS(=O)(=O)c3ccc(F)cc3)ccc2O1 | -1.1
C[C@@H]1CN([C@H](C)CO)C(=O)Cc2cc(NC(=O)CCCCCC(=O)Nc3ccccc3N)ccc2O[C@@H]1CN(C)S(=O)(=O)c1cn(C)cn1 | 1.5
COc1ccc(NC(=O)N(C)C[C@H]2OCc3cn(nn3)CCCC(=O)N([C@H](C)CO)C[C@H]2C)c(OC)c1 | -0.3
C[C@H]1CN([C@@H](C)CO)C(=O)c2cccc(NC(=O)c3nc4ccccc4s3)c2O[C@@H]1CN(C)C(=O)Nc1ccccc1 | 0.3
O=C(NO)c1cccc(C(=O)N/N=C/c2cccnc2Br)c1 | -2.3

Screening results: PubChem BioAssay, Broad Institute
